High-throughput results as filed in PubChem BioAssay.
Kir21 block = blocks the mouse Kir2.1 inward-rectifier potassium channel; P35561; HEK293-Kir2.1, FluxOR thallium flux fluorescence; hits give low values; B-score at 10 µM; 310,000 tested, 0.85% active;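 active = fluorescence ratio B-score at or below minus 3 SD of library scores, with starting-brightness B-score within 2 SD, cut at about -4.2 in these data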;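 also: channel flux triggered by added potassium and thallium sulfate stimulus; B-score of peak minus minimum fluorescence over baseline after thallium stimulus; more negative B-score means stronger Kir2.1 block with less thallium influx; some compounds called inactive have numbers as strong as hits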
Target sequence (P35561 whole entry, looked up): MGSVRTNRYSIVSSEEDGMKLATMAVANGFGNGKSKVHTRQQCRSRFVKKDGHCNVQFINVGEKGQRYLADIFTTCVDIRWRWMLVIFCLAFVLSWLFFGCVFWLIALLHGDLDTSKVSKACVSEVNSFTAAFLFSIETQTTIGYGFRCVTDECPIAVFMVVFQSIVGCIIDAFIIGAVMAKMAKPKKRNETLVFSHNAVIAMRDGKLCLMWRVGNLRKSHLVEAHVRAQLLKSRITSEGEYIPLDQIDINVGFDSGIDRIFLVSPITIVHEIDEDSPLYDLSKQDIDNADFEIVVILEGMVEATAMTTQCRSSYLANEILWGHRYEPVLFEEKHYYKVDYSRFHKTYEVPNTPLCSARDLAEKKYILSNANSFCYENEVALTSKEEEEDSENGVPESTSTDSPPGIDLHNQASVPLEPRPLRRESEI
Starred values were filed as active, the others as inactive. An excerpt, and most or all hits are left out here.

Start of the listing, in advance:
Kir21 block	smiles
-1.3	CCC(=O)c1ccc(OCC(=O)N(C)CC(=O)Nc2cccc(F)c2)cc1
-1.5	Cc1nn(C)c(C)c1NC(=O)/C(C#N)=C\N(C)C
0.55	CCOc1ccc2nc(NS(=O)(=O)c3cccs3)sc2c1
-0.38	COc1ccc(OC)c(NS(=O)(=O)c2ccc(SC)cc2)c1
-0.02	Cc1nc2c(C)cccc2cc1C(=O)N/N=C/c1ccc(N(C)C)cc1
0.03	Cc1ccc(NC(=S)NCC2CCCO2)c(OC(F)F)c1 (stereo not given)
-0.48	O=C(CSc1nnc(-c2ccncc2)n1CC1CCCO1)NCc1ccccc1 (stereo not given)
0.18	C[C@H](NC(=O)C1(c2ccccc2)CCN(C(=O)OC(C)(C)C)CC1)C(=O)N[C@@H](C(=O)O)c1ccccc1
-0.01	CCOC(=O)c1n[nH]c2ccccc12
0.92	CC(C)C[C@H](NC(=O)Nc1ccc(S(N)(=O)=O)cc1)C(=O)O
-0.25	Cc1ccc2c(C)c(C(=O)Nc3cccnc3)oc2c1
1	COc1ccccc1-c1nc(C(N)=O)c2[nH]c(=O)n(-c3cccc(C)c3)c2n1
-0.53	N#CC1=C(N)Oc2cc(O)ccc2C1C1CCCCC1 (stereo not given)
0.1	COc1ccc(N(CC(=O)N/N=C(\C)c2ccc(C)cc2)S(=O)(=O)c2ccccc2)cc1
0.02	COc1ccc(/C=C(\C#N)C(=O)OCCNC(=O)c2ccncc2)cc1

The whole of this part, from the first entry:
Kir21 block	smiles
-1.3	CCC(=O)c1ccc(OCC(=O)N(C)CC(=O)Nc2cccc(F)c2)cc1
-1.5	Cc1nn(C)c(C)c1NC(=O)/C(C#N)=C\N(C)C
0.55	CCOc1ccc2nc(NS(=O)(=O)c3cccs3)sc2c1
-0.38	COc1ccc(OC)c(NS(=O)(=O)c2ccc(SC)cc2)c1
-0.02	Cc1nc2c(C)cccc2cc1C(=O)N/N=C/c1ccc(N(C)C)cc1
0.03	Cc1ccc(NC(=S)NCC2CCCO2)c(OC(F)F)c1 (stereo not given)
-0.48	O=C(CSc1nnc(-c2ccncc2)n1CC1CCCO1)NCc1ccccc1 (stereo not given)
0.18	C[C@H](NC(=O)C1(c2ccccc2)CCN(C(=O)OC(C)(C)C)CC1)C(=O)N[C@@H](C(=O)O)c1ccccc1
-0.01	CCOC(=O)c1n[nH]c2ccccc12
0.92	CC(C)C[C@H](NC(=O)Nc1ccc(S(N)(=O)=O)cc1)C(=O)O
-0.25	Cc1ccc2c(C)c(C(=O)Nc3cccnc3)oc2c1
1	COc1ccccc1-c1nc(C(N)=O)c2[nH]c(=O)n(-c3cccc(C)c3)c2n1
-0.53	N#CC1=C(N)Oc2cc(O)ccc2C1C1CCCCC1 (stereo not given)
0.1	COc1ccc(N(CC(=O)N/N=C(\C)c2ccc(C)cc2)S(=O)(=O)c2ccccc2)cc1
0.02	COc1ccc(/C=C(\C#N)C(=O)OCCNC(=O)c2ccncc2)cc1
1.3	O=c1[nH]c(N2CCCCC2)nc2c1CCCC2
-1	O=C(c1ccc2c(c1)N(Cc1ccccc1)C(=O)c1ccccc1S2)N1CCCC1
2.3	CCOCCCNC(=S)Nc1ccc2nc3n(c(=O)c2c1)CCCCC3
0.84	O=C(CN1CCOCC1)NCCNS(=O)(=O)c1ccccc1
1.4	CC(=O)N1CCc2cc(C(=O)CN3CCCCC3)ccc21
-1.4	COc1cc(C(=O)NCC(=O)Nc2ccc(F)c(F)c2)ccc1OCC(=O)N1CCOCC1
-0.44	COc1ccc(OC)c(NC(=O)C2C3C=CC(C3)C2C(=O)NCc2cccnc2)c1 (stereo not given)
0.69	O=C(NCc1cccnc1)c1ccccc1[N+](=O)[O-]
0.88	COc1cccc(NC(=O)CN(C)C(=O)c2cccc(S(=O)(=O)N3CCN(c4ccccc4)CC3)c2)c1
0.12	Cc1c(C(c2ccccc2O)c2c(C)n(C)n(-c3ccccc3)c2=O)c(=O)n(-c2ccccc2)n1C
0.74	c1ccc2c(CNn3cnnc3)cccc2c1
-0.79	NC(=O)c1c(NC(=O)Cn2cc([N+](=O)[O-])cn2)sc2c1CCCC2
-0.68	CC(C)Nc1nc(NC(C)C)nc(Oc2ccc(/C=N/O)cc2)n1
-0.09	O=C(NC1C(=O)NNC1c1ccccc1)c1ccccc1 (stereo not given)
1.7	Cc1cccc(Cc2c(C)[nH]c(=O)c(C#N)c2C)c1
0.22	CN(C)CCNC(=O)CNC(=S)N(CCCN1CCOCC1)Cc1cccs1
-0.09	COc1ccc2c(c1)C(=O)N(Cc1ccccc1)C(=O)C2(C)C
-1.9	CC(CCCCC(=O)Nc1ccc(C(F)(F)F)cc1)NCCc1cnc[nH]1 (stereo not given)
-1	CCc1nc2ccccc2n(CCOCCOCCn2c(=O)c(CC)nc3ccccc32)c1=O
0.23	O=c1cc(CO)occ1OCc1ccccc1
-1.6	Cc1noc(C)c1-c1nnc(-c2ccc(C(F)(F)F)cc2)o1
0.03	O=C(OC1CCOC1=O)c1cccc(S(=O)(=O)Nc2cccc(Cl)c2)c1 (stereo not given)
-0.08	COc1ccccc1NC(=O)C1CCN(S(C)(=O)=O)CC1
0.01	CCCc1nc2ccccc2c(=O)n1CC(=O)c1ccc(F)cc1
-2.1	COc1ccc(Cl)c(NC(=O)Cn2nnc(-c3ccccc3N)n2)c1
1.7	Cc1cccc(S(=O)Cc2ccc(C(=O)N3CCN(C(=O)c4ccco4)CC3)o2)c1 (stereo not given)
0.54	CCC1CCCCN1Cc1nc2c(c(=O)n(C)c(=O)n2C)n1CCCc1ccccc1 (stereo not given)
-0.32	O=C1/C(=C/c2cccc(Cl)c2)SC(=S)N1CCC(=O)N1CCCCC1CCO (stereo not given)
0.03	COC(=O)c1ccc(C(=O)N=c2sccn2C)cc1
0.14	O=C(Cc1ccccc1)NCCSCc1ccc(Cl)cc1
-1.1	COc1ccc(N(CC(=O)N/N=C/c2ccc3c(c2)OCO3)S(=O)(=O)c2ccccc2)cc1
1.4	CC(=O)NS(=O)(=O)c1ccc(NC(=O)COc2cccc3c2OC(C)(C)C3)cc1
0.02	CC1CN(c2ccc(NC(=O)c3ccco3)cc2C(=O)O)CC(C)O1 (stereo not given)
-0.05	Cc1cc(NC(=O)NC2CC(=O)N(c3ccc4c(c3)OCCO4)C2)no1 (stereo not given)
-0.03	O=C(Cc1ccccc1)c1c[nH]c(C(=O)NCCCn2ccnc2)c1
0.02	Cc1c(S(=O)(=O)N2CCN(C(c3ccccc3)c3ccccc3)CC2)c(=O)n(C)c(=O)n1C
-0.48	N/C(=N\OC(=O)N1CCOCC1)c1ccc(Cl)cc1
-0.53	COCCn1c(N)c(N(Cc2ccccc2)C(=O)Cc2ccccc2F)c(=O)[nH]c1=O
0.05	COc1ccc(CCNC(=O)c2c(C)nc3ccccn23)cc1
-1.1	CCN(CC)C(=O)CC(c1ccc(N(C)C)cc1)c1c(OC)cc(OC)c2ccc(=O)oc12 (stereo not given)
-0.71	COc1ccc2oc(C(=O)OCC(=O)N3CCN(C(C)=O)CC3)c(C)c2c1
0.8	CS(=O)c1ccc(-n2c(=O)n(Cc3ccccc3)c(=O)c3[nH]cnc32)cc1 (stereo not given)
0.13	O=C(O)Cn1c(SC2CCCCC2)nc2ccccc21
-0.1	COc1ccc(C(=O)NC(CC(=O)O)c2cc([N+](=O)[O-])ccc2Cl)c(SC)c1 (stereo not given)
1.4	CC(C)n1nnnc1-c1cc(Cl)cc(Cl)c1

The listing continues:
Kir21 block	smiles
-1.2	CCCCOC(=O)n1c(=O)oc2cc(S(=O)(=O)N3CCCCC3)ccc21
-1.1	COC(=O)CCN(C(=O)c1ccc(N2CCCCC2)c([N+](=O)[O-])c1)c1ccccn1
0	CN(C)S(=O)(=O)c1cc(S(=O)(=O)N(C)C)c(Cl)cc1N
1.8	O/N=C\c1ccc(-c2ccccc2)o1
0.03	N#CCC(=O)N1CCCCCC1
0.74	Cc1nc2ccccc2c(=O)n1/N=C/c1ccc(C(C)C)cc1
0.52	Cc1cc(NS(=O)(=O)c2ccc(NC(=O)/C=C/c3ccccc3Cl)cc2)no1
1.7	O=C(CNC(=O)Cc1ccc(Cl)cc1)NCc1ccco1
0	CC1CCCCN1C(=O)CSCC(=O)Nc1nc(-c2cccs2)cs1 (stereo not given)
1.6	CCOc1ccc(/C=N/Nc2nc(=O)[nH]nc2C)cc1OC
-2.1	N#C/C(=N\Nc1ccc(Br)cc1)C(=N)N1CCOCC1
-0.29	O=C(NN1C(=O)c2ccccc2NC1c1ccc([N+](=O)[O-])o1)c1ccc(Br)cc1 (stereo not given)
0.18	CCOC(=O)C1CCN(C(=O)Nc2ccc(Cl)cc2Cl)CC1
0.09	CC[C@@]12C(=O)N(c3cccc(F)c3)C(=O)N1[C@H](c1ccc(F)cc1)[C@@H]1C(=O)N(C3CCCCC3)C(=O)[C@@H]12
2	COc1ccc(/C=C(\NC(=O)c2ccc([N+](=O)[O-])cc2)C(=O)NCCCN2CCOCC2)cc1
-0.12	O=C(N/N=C\c1ccco1)c1cncc(Br)c1
-0.79	Nc1nc(Cl)cc(Sc2ccc(F)cc2)n1
0.74	CC(=O)Nc1c2c(nn1-c1ccccc1C)CS(=O)C2 (stereo not given)
-0.4	CCCc1cc(=O)[nH]c(SCC(=O)NCCCC(=O)OCC)n1
-0.59	COc1cc(NC(=O)c2c(F)cccc2F)nc(OC)n1
-0.03	COC(=O)C1=CN(c2ccc(OC)cc2)C=C(C(=O)OC)C1c1cccc(F)c1
1.7	CCOC(=O)N1CCN(c2c(NCCc3ccccc3)c(=O)c2=O)CC1
-0.83	Cc1ccnc(NC2CCCCC2)c1
-0.01	Cc1ccc(C(CC(=O)O)Nc2nc(N3CCCCC3)nc(N3CCCCC3)n2)cc1 (stereo not given)
-1.9	CCn1c(CCNC(=O)c2cccs2)n[nH]c1=S
1.1	CCOC(=O)C1=C(C)Nc2ncnn2C1/C=C/c1ccccc1 (stereo not given)
0.56	Cc1[nH]nc2c1C(c1c[nH]c3ccccc13)C(C#N)=C(N)O2 (stereo not given)
0.45	O=C(NCC(=O)N(Cc1cccs1)C(C(=O)NC1CCCC1)c1ccncc1)c1ccco1 (stereo not given)
0.06	CCOc1ccc(C(=O)NC2CC(C)(C)NC(C)(C)C2)cc1
0	Fc1ccc(-n2c(-c3ccc4ccccc4n3)n[nH]c2=S)cc1Cl
-0.81	CCOC(=O)c1ccc(NC(=O)c2c(N)n(C)c(=O)n(C)c2=O)cc1
0.3	CN(C)c1ccc(C2NCCS2)cc1 (stereo not given)
0.72	COc1ccc(OC)c(C(C)NC(=S)Nc2ccc(S(=O)(=O)Nc3ncccn3)cc2)c1 (stereo not given)
-0.49	CN1CCN(c2cc(=O)n(-c3ccc(Cl)cc3)c(=O)[nH]2)CC1
0.12	Cn1nc(-c2ccc(C(=O)N3CCN(Cc4ccccc4)CC3)cc2)c2ccccc2c1=O
-0.42	COCCNCCOCCOc1ccc(Cl)c(C)c1
-0.5	Cc1nnc(SCCn2c(N3CCN(Cc4ccccc4)CC3)nc3c2c(=O)[nH]c(=O)n3C)s1
-0.26	CSc1ccc(S(=O)(=O)NCc2ccc(C)cc2)cc1
-1.1	O=C(O)CSc1c2c(nc3cc(C(=O)N4CCCC4)ccc13)CCCC2
-0.64	CC(=O)c1cc2c(cc1NC(=O)CN1CCCCCC1)OCO2
-0.06	O=C(OCc1nnc(-c2ccccc2)o1)c1ccco1
0.94	Cc1cccc(OCC(=O)NNC(=O)C2CCN(c3ncnc4sc(C)c(C)c34)CC2)c1
1.1	NC(=O)CSc1nc(-c2ccccc2)nc2c1CCCC2
0.88	CCC(C)[C@@H](C(=O)Nc1ccc2c(c1)OCO2)N1Cc2ccccc2C1=O (stereo not given in full)
-1.5	CCC(=O)N/C(=N\OCc1ccc(F)cc1)c1nonc1NC(=O)CC
1.2	O=C(CN1CCOCC1)Nc1ccc2c(c1)OCCO2
1.1	Cc1oc2ccc(O)cc2c1C(=O)OC(C)C
-1.5	Cc1cccc(/C=C2\Sc3ccc(C(=O)N4CCOCC4)cc3N(C)C2=O)c1
-0.1	CCN1CCc2nc(SCC(=O)Nc3ccc(OC)cc3)c(C#N)cc2C1
0.67	Cc1cc(C(=O)NCc2cc(C(=O)O)oc2C)c(C)o1
-0.67	Cc1sc2ncn(CC(=O)NCC(=O)N3CCN(c4ccccc4F)CC3)c(=O)c2c1C
-1.4	COCCOc1ccc(C(F)(F)F)cc1NC(=O)c1ccccc1F
-0.11	Cc1ccc(C(C)C)c(OCc2nnc(SCC(=O)Nc3nccs3)n2C)c1
-0.04	Cc1ccccc1NC(=O)N1CCN(c2ncccn2)CC1
-0.48	CCn1c(Cc2ccccc2)nnc1SCC(=O)Nc1ccc(OC)cc1
-0.32	Cc1ccc(C(=O)N2CC3(C(C)C)CN(C(=O)c4ccc(C)cc4)CC(C(C)C)(C2)C3=O)cc1
-1.5	Cc1cccc(NS(=O)(=O)c2cccc(C(=O)NCCCN3CCCC3=O)c2)c1
0.03	CCOC(=O)C1(CCOC)CCN(Cc2nc(-c3cccs3)oc2C)CC1
-0.1	CN(C)c1ccc(CNC(=O)CN(C)S(=O)(=O)c2ccc3c(c2)c(=O)n(C)c(=O)n3C)cc1
0.09	CS(=O)(=O)N1CCN(C(=O)Cc2ccc([N+](=O)[O-])cc2)CC1

Part of the list above, field by field:
CCCc1nc2ccccc2c(=O)n1CC(=O)c1ccc(F)cc1
  Kir21 block: 0.01
O=C(c1ccc2c(c1)N(Cc1ccccc1)C(=O)c1ccccc1S2)N1CCCC1
  Kir21 block: -1

(next part)
Kir21 block	smiles
3.7	CCN(CCCNC(=O)CCn1c(=O)[nH]c2ccccc2c1=O)c1cccc(C)c1
-1.2	CC(=O)c1cccc(NC(=O)c2ccc(C)o2)c1
0.55	CCOC(=O)C(=O)N/N=C/c1ccco1
1.1	CCCN(CCC)CCCNC(=O)Cn1cnc2sc(C)c(S(=O)(=O)N3CCCCC3)c2c1=O
0.4	Cc1nc2ccc(NC(=O)N3CCSCC3)cc2nc1C
0.62	CN(C)S(=O)(=O)c1ccc(C(=O)Nc2cc(=O)n(C)c(=O)n2C)cc1
-1.1	O=C(O)c1ccc(C2SCC(=O)N2Cc2ccco2)cc1 (stereo not given)
-1.7	Cc1c(C(c2ccc(F)cc2)c2c(C)n(C)n(-c3ccccc3)c2=O)c(=O)n(-c2ccccc2)n1C
0.46	Cc1cc(C)cc(NC(=O)CCCn2nc(C)c3c(C)n(-c4ccccc4)nc3c2=O)c1
